Screens as filed in PubChem BioAssay.
KCNQ2 inh: KCNQ2 channel blockers in CHO-K1 cells – cell-based, FluxOR thallium flux, B-score, primary screen (AID 2156). O88943. 20 min; stronger effect = lower value; only compounds with negative scores are shown here; some inactives read as strong as hits. B-score at 10 µM. 310,000 compounds, 1.1% hits;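 active = fluorescence ratio B-score at most minus 3 library SDs, with starting brightness B-score within 2 library SDs, cut at about -5.5 in these data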
Target sequence (O88943 whole entry, looked up): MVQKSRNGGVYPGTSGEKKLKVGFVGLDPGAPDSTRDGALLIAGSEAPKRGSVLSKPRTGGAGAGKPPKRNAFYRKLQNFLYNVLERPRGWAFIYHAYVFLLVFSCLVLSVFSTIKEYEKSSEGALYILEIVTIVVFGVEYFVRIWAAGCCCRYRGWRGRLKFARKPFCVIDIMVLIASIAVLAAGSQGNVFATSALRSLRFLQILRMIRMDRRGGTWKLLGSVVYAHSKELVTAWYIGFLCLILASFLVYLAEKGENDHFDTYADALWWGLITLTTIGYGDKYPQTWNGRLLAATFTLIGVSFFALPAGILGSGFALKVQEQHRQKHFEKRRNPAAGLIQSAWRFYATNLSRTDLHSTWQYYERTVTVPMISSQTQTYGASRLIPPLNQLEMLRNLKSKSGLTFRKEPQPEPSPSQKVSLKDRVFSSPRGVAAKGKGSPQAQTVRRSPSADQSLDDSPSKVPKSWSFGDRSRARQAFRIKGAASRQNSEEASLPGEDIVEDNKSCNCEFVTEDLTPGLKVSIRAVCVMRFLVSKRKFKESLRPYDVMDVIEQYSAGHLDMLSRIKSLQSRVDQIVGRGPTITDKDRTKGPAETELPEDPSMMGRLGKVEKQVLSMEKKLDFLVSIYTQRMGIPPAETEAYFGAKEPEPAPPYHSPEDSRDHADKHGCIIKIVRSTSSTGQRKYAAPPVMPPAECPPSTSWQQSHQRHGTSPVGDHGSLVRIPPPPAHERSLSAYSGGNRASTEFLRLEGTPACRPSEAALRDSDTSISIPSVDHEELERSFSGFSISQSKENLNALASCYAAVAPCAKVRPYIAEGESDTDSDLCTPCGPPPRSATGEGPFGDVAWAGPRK
KCNQ2 inh baseline: recorded beside KCNQ2 inh, whose call it bears; B-score; measured here: initial fluorescence intensity artifact check;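 brightness before thallium and not channel activity; 0 = typical well and far values either way flag optical interference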
An asterisk follows results filed as active; i = inactive. Not all compounds are listed; rates above refer to the full screens.

SMILES	KCNQ2 inh	KCNQ2 inh baseline
COc1ccc(CC(=O)Nc2cccc(-c3nnc(-c4ccccc4)o3)c2)cc1OC	i	1.7
CCOc1cc2c(cc1OC)C(NC(=O)c1ccco1)CC2=O (stereo not given)	i	0.44
COCc1cccc(N2C(=O)CC(C3C=C(C)C4C(=O)N(c5cccc(COC)c5)C(=O)C4C3)C2=O)c1 (stereo not given)	i	2.9
CCN(CC(=O)Nc1ccccc1C(F)(F)F)C(=O)CSCc1ccc(C)cc1	i	-0.75
CC(C)NS(=O)(=O)c1ccc(CCC(=O)N2CCOCC2)cc1	i	1.5
COc1cccc(N2CCN(C(=S)Nc3cccc(C)c3)CC2)c1	i	-0.35
Brc1cnc2nc(SCc3nc4ccccc4[nH]3)[nH]c2c1	i	0.31
COC(=O)c1ccccc1NC(=O)CN1CCC(n2nnc3cc(C(F)(F)F)ccc32)CC1	i	-0.37
CN(C1CCCCC1)S(=O)(=O)Cc1ccccc1	i	-1.4
O=C(N1CCN(c2ccccc2)CC1)C12CC3CC(CC(C3)C1)C2	i	1.1
O=C1CSC(=S)N1c1ccc(F)cc1	i	-0.47
CCOC(=O)C1(CCCc2ccccc2)CCN(C(=O)[C@@H]2C[C@@H](C)NC(=S)N2)CC1	i	0.25
COC(=O)Cn1c(=NC(=O)c2ccc(S(=O)(=O)N3CCc4ccccc4C3)cc2)sc2cc(OC)ccc21	i	-0.06
Cc1ccccc1NC(=S)NCCC(c1ccccc1)c1ccccc1	i	0.04
Cc1ccc(Cn2c(SCC(=O)N/N=C/c3ccc(C)o3)nc3ccccc32)cc1	i	0.64
Cc1ccc(N2C(=O)C3C4C=CC(CC4)C3C2=O)cc1[N+](=O)[O-] (stereo not given)	i	0.01
CCCCNC(=O)C1Cc2cc(S(=O)(=O)N3CCCCC3)ccc2N1C(C)=O (stereo not given)	i	-0.41
O=C(NCc1ccccc1)NC(=O)c1ccccc1	i	1.7
CC(NS(=O)(=O)c1ccc(OCC(=O)NCc2cccnc2)cc1)c1ccccc1 (stereo not given)	i	0.01
Nc1ccccc1OCCOCCOCCOc1ccccc1N	i	-1.4
Nc1cc(OC(=O)c2ccc(F)cc2)nn1S(=O)(=O)c1ccc(F)cc1	i	0.1
CC1(C)C2CC=C(/C=N/NC(=O)c3ccccc3Br)C1C2 (stereo not given)	i	-1.2
O=C(NCC(c1cccs1)N1CCOCC1)c1cc(=O)[nH]c2ccccc12 (stereo not given)	i	-0.73
Cc1ccc(C(OCC(O)CNC(C)c2ccccc2)c2ccccc2)cc1 (stereo not given)	i	0.05
O=C(/C=C/c1ccc(Cl)cc1)NC(=S)Nc1ccccc1C(=O)O	i	0.43
COc1ccc2nc(N/C(N)=N/C(=S)Nc3cccc(C)c3)nc(C)c2c1	i	0.27
CC(C)=CC(=O)Nc1ccc(S(=O)(=O)Nc2onc(C)c2C)cc1	i	-0.15
CCOC(=O)c1ccc(NC(=S)NCCCn2ccnc2)cc1	i	1.4
CCCCN(CC)S(=O)(=O)c1ccc(C(=O)Nc2nnc(CSC)o2)cc1	i	-2.2
CC(C)CSC1=NSC2=NC(=O)/C(=C\c3coc4ccccc4c3=O)C(=N)N12	i	71
Cc1ccc(C(=O)N2CCN(c3ccc(F)cc3)CC2)cc1S(=O)(=O)N1CCCCC1	i	-0.07
O=C(NC(NNc1ccc([N+](=O)[O-])cc1)(C(F)(F)F)C(F)(F)F)c1ccc(F)cc1	i	-0.62
Cc1ccc(N2CC(=O)N(NC(=O)Nc3ccc(Cl)c(Cl)c3)CC2=O)cc1	i	-0.53
COc1ccccc1N(C(=O)CNC(=O)c1ccco1)C(C(=O)NCC1CCCO1)c1ccccc1 (stereo not given)	i	-0.8
CN(C)CCNC(=S)NC1CCCCC1	i	-1.1
CCCC(=O)Nc1c(C)nn(C(=O)CCC)c1C	i	0.08
CC1=C([N+](=O)[O-])C(c2ccc(O)c(O)c2)NC(=O)N1 (stereo not given)	i	-0.21
O=C1OC(Cc2ccccn2)C(O)=C1C1=NCCCN1 (stereo not given)	i	0.38
Cc1ccc(S(=O)(=O)Nc2ccc(Cl)cc2C(=O)c2ccccc2)cc1	i	0.35
O=C(/C(Cl)=C/Nc1ccc(Br)cn1)C(F)(F)F	i	0.32
O=C(CCN1CCOCC1)NCC1COc2ccccc2O1 (stereo not given)	i	-0.2
CCOC(=O)CSc1cc(C)nc(NC(C)=O)n1	i	-0.04
Cc1noc(C)c1CSCC(=O)Nc1ccccc1N1CCCCC1	i	2.1
Cn1c(=O)n(CCCOc2ccc(Br)cc2)c2ccccc21	i	-1
CN(C)S(=O)(=O)Oc1ccccc1C(=O)Nc1ccccc1Cl	i	-1.1
CN1CCCC(OC(=O)COc2ccccc2)C1 (stereo not given)	i	-0.11
COc1cccc(CSCC(=O)NCCc2ccccc2)c1OC	i	0.2
COC(=O)C1C(=O)C2=C(CC1C)NC(=O)CC2c1ccc(O)c(OC)c1 (stereo not given)	i	0.23
O=C(Nc1ccc(Nc2ccccc2)cc1)C1CC1	i	1.6
CCCN(CCC)Cc1c(C(=O)N/N=C/c2ccc(C)o2)nnn1-c1nonc1N	i	0.92
C=CCSc1nnc(NC(=O)Cn2cnc3c2c(=O)n(C)c(=O)n3C)s1	i	1.3
Cc1ccc(C(=O)NCCNc2nc3cc(C)c(C)cc3cc2C)cc1	i	-0.12
Cc1ccc2c(c1)C(N1CCCC1=O)CC(c1ccco1)N2 (stereo not given)	i	0.83
CCOc1ccccc1NC(=O)CCNS(=O)(=O)c1cccc2nonc12	i	0.34
O=C1CC(NNC(=O)c2ccc(Br)cc2)C(=O)N1 (stereo not given)	i	0.04
O=C(c1cc(-c2ccncc2)nc2ccccc12)N1CCN(S(=O)(=O)/C=C/c2ccccc2)CC1	i	-1.7
O=C(/C=C/c1ccccc1)NC(NC(=S)Nc1ccc(Cl)cc1)C(Cl)(Cl)Cl (stereo not given)	i	-0.14
CCOC(=O)C1(CCc2ccccc2)CCN(C(=O)c2cnc(C)cn2)CC1	i	0.45
COc1cc(C(C(=O)NCc2ccccc2)N(C(=O)c2snc(C(N)=O)c2N)C2CCCC2)cc(OC)c1OC (stereo not given)	i	0.22
CCOC(=O)Nc1cccc2ccccc12	i	-0.14
(listing goes on)
SMILES	KCNQ2 inh	KCNQ2 inh baseline
CN1C(=O)C(CC(=O)NCCc2ccccc2)N(NC(=O)c2ccc(Cl)cc2)C1=S (stereo not given)	i	0.03
Cc1ccccc1-n1c(SCC(=O)c2cc(C)n(C)c2C)nnc1-c1cccnc1	i	-0.52
Nc1ncncc1-c1ccc(Cl)cc1	i	0.55
CC(C)Oc1cccc(C(=O)NC(=S)N2CCN(c3ccc(C(F)(F)F)cc3[N+](=O)[O-])CC2)c1	i	3
CC(C)(C)c1cc(C(=O)Nc2ccc(F)cc2)n(Cc2ccc(F)cc2)n1	-5.9*	0.14*
COCCn1c(Cc2ccccc2)nnc1SCC(=O)Nc1oc(C)c2c(C)n[nH]c(=O)c12	i	0.66
O=C(CSc1ccc(-c2ccccn2)nn1)NC1CCCCC1	i	-0.11
COC(=O)c1ccc(N2CCN(CC(=O)c3ccc(-c4ccccc4)cc3)CC2)c([N+](=O)[O-])c1	i	1.2
O=S(=O)(Nc1ccc2c(c1)CCC2)c1cccs1	i	-0.95
CCOC(=O)c1cnn(CC2CCCCC2)c1N	i	3
CC(C)c1ccc(N2C(=O)C3C4C=CC(CC4)C3C2=O)cc1 (stereo not given)	i	-0.98
O=C(Nc1cccc(-c2ccc(F)cc2)c1)C1CCCN(C(=O)c2cscn2)C1 (stereo not given)	i	-0.08
Cn1cccc1/C=N/NC(=O)Cn1cnc2ccccc21	i	-1.4
CC(C)CNC(=S)N1CCN(C(c2ccccc2)c2ccccc2)CC1	-5.9*	0.81*
COc1ccc(NC(=O)CC2C(=O)N(Cc3ccccc3)C(=S)N2CCN2CCOCC2)cc1 (stereo not given)	i	0.09
O=c1c(C=NCCN2CCNCC2)c(-c2ccccc2)[nH]n1-c1ccc([N+](=O)[O-])cc1	-7*	-1.8*
COc1ccc(CC2(CO)CCN(Cc3ccc4nsnc4c3)CC2)cc1	i	-0.38
N#C/C(=C/c1cccc([N+](=O)[O-])c1)C(=O)Nc1ccccc1O	i	-0.78
COc1ccc2ccccc2c1CNC(C)CCc1ccccc1 (stereo not given)	i	0.07
CC(C)(C)c1ccc(C(=O)Nc2ccc([N+](=O)[O-])cn2)cc1	i	2.3
CCOc1cc(-c2nc3ccccc3s2)ccc1O	i	3.4
CCC(=O)N(Cc1cc(=O)[nH]c2ccccc12)c1ccccc1OC	i	0.38
COc1ccc(OC)c(C(=O)Cn2cnc3ccccc3c2=O)c1	i	0.34
O=C(NNC(=O)c1cc(Cl)ccc1[N+](=O)[O-])c1csc(N2CCOCC2)n1	i	-0.43
CCN1CCN(c2nc3c(c(=O)n(C)c(=O)n3C)n2CCSc2ncccn2)CC1	i	-1.2
CCOc1cccc(-c2cc(C(=O)N3N=C(C)CC3(O)C(F)F)c3ccccc3n2)c1 (stereo not given)	i	0.31
COc1cccc(C2CCCN2Cc2nc(-c3sccc3C)oc2C)c1 (stereo not given)	i	-0.05
O=C(C1=C(O)C(=O)N(CCN2CCOCC2)C1c1ccc(Cl)cc1)c1cc2ccccc2o1 (stereo not given)	i	-0.47
Cc1ccc(Cl)cc1N1CCN(S(=O)(=O)c2ccc3c(c2)OCCO3)CC1	i	0.22
CCOC(=O)c1cn(C2CC2)c2c(F)c(F)c(F)cc2c1=O	i	2.1
Cc1cc(/C(N)=N/OC(=O)c2cccc(Cl)c2)no1	i	0.05
CCC(Oc1ccccc1)C(=O)Nc1ccccc1N1CCCC1 (stereo not given)	i	-1.1
CCCNS(=O)(=O)c1cccn1-c1ncc(C(F)(F)F)cc1Cl	i	-0.07
Cn1c(CSc2nc3ccccc3n2C)nc2ccccc21	i	0.8
Cc1ccc2cccc(OCc3ccccc3)c2n1	i	2.1
O=S(=O)(c1ccccc1)N1CCN(c2nc(-c3cccs3)nc3ccccc23)CC1	i	1.3
CC(=O)Oc1cc2cccc(OC(C)=O)c(=O)c2c(OC(C)=O)c1OC(C)=O	i	0.82
COc1ccc(NC(=O)c2ccccc2NC(=O)c2ccco2)c(OC)c1	i	1.1
CCOc1ccc(C(=O)NC(=S)Nc2ccc(NC(=O)c3ccco3)cc2)cc1[N+](=O)[O-]	i	-0.53
Cc1ccc(-n2ncc3c(NCc4ccco4)ncnc32)cc1C	i	0.12
O=C(Cc1ccccc1Cl)N/N=C/c1cccnc1	i	-0.42
CN(C)CCCNc1oc(-c2ccc(Cl)cc2)nc1C#N	i	-1.9
O=C1CC(c2ccccc2)Oc2cc(O)cc(O)c21 (stereo not given)	i	1.5
COc1cccc(-c2ccc(NC(=O)C3CCCN(CCCn4nc(C)cc4C)C3)cc2)c1 (stereo not given)	i	0.21
Cn1sc(NC(=O)c2ccccc2)nc1=O	i	1.9
COC(=O)c1sccc1NC(=O)Nc1ccc(C(C)=O)cc1	i	0.55
Cc1onc(-c2c(Cl)cccc2Cl)c1C(=O)N1CCN(c2ccccc2)CC1	i	-0.16
COc1ccc(CNC(=O)c2sccc2C)cc1	i	0.93
Cc1ccc(NC(=O)c2cnccn2)cc1C	i	0.73
CC(c1cccs1)N(C(=O)Nc1ccccc1)C1CCCCC1 (stereo not given)	-5.9*	-2.3*
O=C(NCc1ccco1)Nc1ccc(Br)cc1Cl	i	0.62
CSc1cc(C)n(-c2ccccc2)c(=S)c1C(C)=O	i	-2.2
Cn1c(OCc2cccnc2)nc2c1c(=O)n(Cc1ccc(Br)cc1)c(=O)n2C	i	-0.77
CC(=O)N1CCC2(CC1)CC(=O)c1cc(Cl)ccc1O2	i	-1.3
CCc1ccc(NC(=S)N(Cc2ccccc2)Cc2ccccn2)cc1	i	-0.02
CCCN(C(=O)COC(=O)CCOc1ccccc1C)c1c(N)n(Cc2ccccc2)c(=O)[nH]c1=O	i	-0.82
CCCn1c(=O)c(/C(N)=N/O)nn(-c2cccc(C(F)(F)F)c2)c1=O	i	2.1
COc1ccc(C2CCCN2C(=S)Nc2ccccc2C)cc1OC (stereo not given)	i	-2
COC(=O)C1=C(N)N(c2ccccc2C(F)(F)F)C2=C(C(=O)CCC2)C1c1ccc2c(c1)OCO2 (stereo not given)	i	-0.06
Cc1ccccc1OCC(=O)N/N=C/c1cn(C)c2ccccc12	i	0.96
COC(=O)c1ccc(/C=N/OCC(=O)NCc2ccc(F)cc2)cc1	i	0.68
